AID504770 = growth inhibition of E. coli YBA685, primary screen, V. cholerae RctB inhibitors | E. coli YBA685 rctB-dependent plasmid, OD600 growth, 3 h; active compounds read low | z-score (concentration not given with the values) | 0.27% of 130,000 active;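 active = z-score under -2 on both plates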;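 also: wells of about 30 µL received 100 nL stock; score is relative to mean and SD of the test wells; the first replicate is given; strong numbers were not always called active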
Ba CapD inh = Bacillus anthracis CapD inhibitors, primary screen, biochemical, fluorescence intensity | 0.23% of 140,000 active | CapD gamma-glutamyltranspeptidase (Bacillus anthracis Ames Ancestor) | purified CapD enzyme, fluorescence intensity read-out; active compounds read low; some hits fall short of the stated cut | z-score (no concentration beside the values);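 active = z-score under -4 in either of two replicates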;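 also: stock transfer was 100 nL into about 40 µL; score is relative to mean and spread of the plate; one replicate is shown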
Numbers without * were called inactive; nt = not tested or not shown.

SMILES | AID504770 | Ba CapD inh
Cc1cccc(N2CCN(C(c3nnnn3C3CCCC3)C(C)C)CC2)c1C (stereo not given) | -0.1 | nt
O=C(COC(=O)c1ccccc1C(=O)c1ccccc1)NCc1ccccc1 | 1.6 | -0.075
O=C(C1CC(=O)N(c2ccc(OCc3ccccc3Cl)cc2)C1)N1CCOCC1 (stereo not given) | -0.45 | 0.02
CC(C)(C)OCC(NC(=O)C1CCN(c2ccc(C(F)(F)F)cn2)CC1)C(=O)OC(C)(C)C (stereo not given) | nt | 5.1
O=c1cc(CSC(=S)N2CCSCC2)c2ccccc2[nH]1 | -0.3 | 0.8
CC(C)(C)c1sc(N)nc1-c1ccccc1 | -0.2 | -0.74
O=S(=O)(c1cccc(Cl)c1Cl)N1CCN(Cc2ccccc2)CC1 | nt | -0.15
Cc1cccc(C)c1Nc1nc2nonc2nc1Nc1ccccc1 | nt | -1.4
CCCCCn1c(=NC(=O)c2ccncc2)c(C#N)cc2c(=O)n3ccccc3nc21 | -0.35 | nt
CCC(=O)N/N=c1/sc2ccccc2n1C | -0.75 | 0.04
CCN(CC(O)c1cccc(O)c1)C(=S)Nc1ccc(S(=O)(=O)N2CCOCC2)cc1 (stereo not given) | 0 | nt
CCOC(=O)C1C(=O)NC(SCC(=O)Nc2cccc(C)c2C)=C(C#N)C1c1ccccc1Cl (stereo not given) | nt | -0.66
Cc1ccc(OCC(=O)N(C)C)c(C)c1 | 0.1 | nt
CC(Sc1nnc(C(C)NC(=O)c2ccccc2)n1C)C(=O)Nc1ccc2c(c1)OCO2 (stereo not given) | -0.35 | nt
Cc1cc(C)c2c(=O)[nH]n(C3CCCCC3)c2n1 | -0.15 | -1.2
COc1cc(OC)nc(C(=O)N2CCN(Cc3ccccc3)CC2)n1 | nt | 0.1
N#CCSc1nc2ccccc2c(=O)n1CCCC(=O)NCCc1ccccc1 | 0.35 | 0.12
COc1ccc(C(c2nnnn2C2CCCCC2)N2CCC(C)CC2)cc1OC (stereo not given) | -0.2 | nt
COCCNC(=O)c1ccc(Cn2c(SCC(=O)NCc3ccco3)nc3ccc(Br)cc3c2=O)cc1 | nt | 0.55
Cc1nn(-c2ccc(F)cc2)c(Cl)c1/C=C/C(=O)N1CCC(C(N)=O)CC1 | -0.4 | nt
Clc1nc(NCc2ccco2)nc(Nc2nc(-c3ccccc3)cs2)n1 | nt | 0.13
C/C(=N\O)c1ccc2c(c1)OCCOCCOCCO2 | -0.35 | 0.64
C=CCn1c(C)cc(C(=O)CSc2nnc(-c3ccccc3F)n2C)c1C | 0.05 | nt
C#CCSCc1nc2ccccc2[nH]1 | -0.75 | 8.7
COc1cc(N/C=C(\C#N)c2nc(-c3cc4cc([N+](=O)[O-])ccc4oc3=O)cs2)c(OC)cc1Cl | nt | 0.015
O=C1CC(=O)Nc2ccccc2N1 | -0.8 | 0.025
Cc1ccc(CSc2nc3ccncc3n2Cc2ccc(C(=O)O)cc2)cc1 | 0.9 | 0.43
CCCCC(=O)Nc1ccc(S(=O)(=O)NC(C)(C)C)cc1 | 0.5 | -0.26
COc1ccc(C(=O)N2CCC3(CC2)OCCO3)cc1 | 0.35 | 0.1
Cc1cc(C)c(C#N)c(SCC(=O)Nc2cccc3cccnc23)n1 | nt | -0.065
Cc1ccc(C(=O)Cn2c(C)csc2=Nc2ccccc2)cc1 | 0.05 | -0.14
CCOC(=O)/C=C(\C)N1N=C2c3ccc(OC)cc3CCC2C1c1ccc(OC)cc1 (stereo not given) | -1.3 | 0.33
CC1(C)CC(=O)c2cc(C#N)c(SCC(=O)N3CCc4ccccc43)nc2C1 | -0.05 | 0.24
Cc1cc(C)nc(SC(C)C(=O)O)n1 (stereo not given) | 0.55 | 0.56
O=C(Nc1ccc(S(=O)(=O)N2CCCCC2c2cccnc2)cc1)c1cccc([N+](=O)[O-])c1 (stereo not given) | nt | -0.095
CCSc1ncc(-c2nnnn2-c2ccccc2)c(-c2ccccc2)n1 | -0.8 | 0.79
CC1(C)CC2CC(C)(CN2C(=O)c2ccccc2NC(=O)c2ccco2)C1 (stereo not given) | -0.7 | 0.19
COc1cccc(C)c1OC(=O)c1cc(F)cc(Cl)c1 | -0.25 | -0.69
COc1ccc(-c2nc(S(=O)(=O)c3ccccc3)c(NCC3CCCO3)o2)cc1 (stereo not given) | 0.25 | nt
O=S1(=O)CCC(OC2CCS(=O)(=O)C2)C1 (stereo not given) | -0.7 | -0.86
COCCNC(=O)c1ccccc1NC(=O)c1ccco1 | 0.2 | nt
CN(Cc1ccccc1)Cc1ccco1 | -0.8 | -0.08
CCCN(CCC)S(=O)(=O)c1ccc(C(=O)Nc2nccs2)cc1 | -0.3 | 0.74
Cc1cc(=O)c2cc(Cl)ccc2[nH]1 | nt | 0.27
COc1ccc(NCC(C#N)C(=O)NCc2ccc(Cl)cc2)cc1 (stereo not given) | 0.6 | 4.2
O=C(CSCc1cnn(-c2ccccc2)c1-n1cccc1)NCCN1CCOCC1 | 0.3 | 0.85
CCCNC(=O)c1ccc(N2CC3CC(C2)c2cccc(=O)n2C3)c(NC(=O)Nc2cccc(OC)c2)c1 (stereo not given) | 0.35 | -2.3
CC1=C(C(=O)N2CCCCC2)C(c2ccc(Br)cc2)C2=C(CCCC2=O)N1 (stereo not given) | -0.5 | 56
N#Cc1cn(CCOc2ccccc2F)c2ccccc12 | -0.55 | nt
O=C(Nc1cccc(-c2nn[nH]n2)c1)c1ccc(Br)o1 | -0.8 | -0.22

Whole records, looked up by structure. Screens in order: AID504770, Ba CapD inh
Profile of CCCNC(=O)c1ccc(N2CC3CC(C2)c2cccc(=O)n2C3)c(NC(=O)Nc2cccc(OC)c2)c1 (stereo not given) : 0.35, -2.3
Profile of COc1cccc(C)c1OC(=O)c1cc(F)cc(Cl)c1 : -0.25, -0.69
Profile of O=C(Nc1ccc(S(=O)(=O)N2CCCCC2c2cccnc2)cc1)c1cccc([N+](=O)[O-])c1 (stereo not given) : nt, -0.095
Profile of O=C1CC(=O)Nc2ccccc2N1 : -0.8, 0.025
Profile of CCOC(=O)/C=C(\C)N1N=C2c3ccc(OC)cc3CCC2C1c1ccc(OC)cc1 (stereo not given) : -1.3, 0.33

Single entries from the list.
For AID504770, `CC1=C(C(=O)N2CCCCC2)C(c2ccc(Br)cc2)C2=C(CCCC2=O)N1` (stereo not given) is entered as -0.5
For Ba CapD inh, `CC1(C)CC2CC(C)(CN2C(=O)c2ccccc2NC(=O)c2ccco2)C1` (stereo not given) is entered as 0.19
For AID504770, `COc1ccc(NCC(C#N)C(=O)NCc2ccc(Cl)cc2)cc1` (stereo not given) is entered as 0.6
For AID504770, `CCSc1ncc(-c2nnnn2-c2ccccc2)c(-c2ccccc2)n1` is entered as -0.8

Next part
smiles,AID504770,Ba CapD inh
COc1ccc(CCN=C2CCc3ccccc3N2)cc1OC,1.3,1.9
O=C(CCOc1ccccc1)Nc1nc2c(ccc3ccccc32)s1,0,-0.69
COc1ccccc1N1CCN(C(=O)CN(c2ccc(C)cc2)S(=O)(=O)c2ccc(F)cc2)CC1,nt,0.43
Cc1cc(C)nc(SCCS(=O)c2ccc(C(C)(C)C)cc2)n1 (stereo not given),1.6,0.55
Cc1cc(=O)cc(C)n1-c1ccc(F)cc1F,-0.2,0.1
Cc1ccc(S(=O)(=O)NC2c3cccc4cccc(c34)C2Sc2ccccn2)cc1 (stereo not given),-0.15,0.4
O=C(OCc1nnc(-c2ccccc2)o1)c1cccc(S(=O)(=O)N2CCc3ccccc32)c1,0,nt
NC(=O)C1(N2CCCCC2)CCN(C(=O)C2CCCCC2)CC1,-1.1,nt
COc1cc(C)nc(N(Cc2ccccc2)S(=O)(=O)c2ccc(C)cc2)n1,nt,-0.26
c1ccc(Cn2nnc3c(N4CCc5ccccc54)ncnc32)cc1,-1.8,1.6
COc1ccc(CCNc2nc3c(c(=O)n(C)c(=O)n3C)n2Cc2ccccc2F)cc1OC,nt,0.5
CCN(CC)c1ccc2c3c(c(=O)oc2c1)C(c1cc2c(C)cc(C)cc2[nH]c1=O)C(C#N)=C(N)O3 (stereo not given),1.4,nt
Cc1ccc(-n2nc3c(=O)n(CCCC(=O)N4CCCCC4)nc(C)c3c2C)cc1,-0.15,0.43
CCN(C(=O)Cn1cnc2c(nc3n2CCCCC3)c1=O)c1cccc(Cl)c1,-0.5,0.52
O=C(Sc1cccs1)c1csc(C2COc3ccccc3O2)n1 (stereo not given),1.4,0.29
CN1CCc2[nH]c3ccc(Cl)cc3c2C1,0.65,-0.29
C1CCC(N2CCN(C3CCCC3)CC2)C1,-0.3,nt
O=C(Nc1cccnc1)c1cccc(C(=O)Nc2cccnc2)c1,-1.2,nt
N#C/C=C1\SCC(=O)N1CC(O)c1ccc(Cl)cc1 (stereo not given),-0.8,nt
O=C1N/C(=N\c2ccccn2)SC1Cc1cccc(Cl)c1Cl (stereo not given),nt,1
O=C(NCCCN1CCCC1=O)c1sc2ccccc2c1Cl,-0.55,-0.26
C=CCn1c(CCCO)nc2ccccc21,-0.7,-0.38
CC1=C(C(N)=O)C(c2ccccc2)n2ncnc2N1 (stereo not given),-0.05,nt
COc1cc(OC)c(NC(=O)CSc2nc3ccccc3n2S(C)(=O)=O)cc1Cl,nt,-0.31
CN1C(=O)C(=Cc2ccccc2OS(=O)(=O)c2ccccc2[N+](=O)[O-])C(=O)N(C)C1=O,nt,0.035
CC(=O)Nc1ccc(NC(=O)CN(C)S(=O)(=O)c2ccc(F)cc2)cc1,1,-0.15
Cc1nnc2sc3c(n2c1=O)C(=O)N(c1ccc(I)cc1)C3=O,nt,0.09
Cc1ccccc1N1C(=O)C(Cc2ccccc2)S/C1=C(/C#N)C(N)=O (stereo not given),-0.55,-0.53
Cc1cccc(-n2ncc3c(N4CC(C)OC(C)C4)ncnc32)c1 (stereo not given),0.2,0.36
CC(C)NC(=O)CN1CCN(S(=O)(=O)c2ccc(C#N)cc2)CC1,nt,-0.91

Sorted by molar mass (rising): some entries from above
smiles,AID504770,Ba CapD inh
C=CCn1c(CCCO)nc2ccccc21,-0.7,-0.38
CCCCCn1c(=NC(=O)c2ccncc2)c(C#N)cc2c(=O)n3ccccc3nc21,-0.35,nt
O=C(C1CC(=O)N(c2ccc(OCc3ccccc3Cl)cc2)C1)N1CCOCC1 (stereo not given),-0.45,0.02

Continuation:
smiles,AID504770,Ba CapD inh
COc1ccc(Cl)cc1C(=O)CSc1nnnn1C1CCCCC1,0.05,nt
CC1(C)c2ccccc2N2CCC(=O)NC21/C=C/c1cccs1 (stereo not given),nt,-0.3
CCOc1cc(/C=C2\C(O)C3CCN2CC3)cc(Cl)c1OCC (stereo not given),0.05,-0.42
CC(C)COC(=O)CN1C(=O)C2C3c4ccccc4C(c4ccccc43)C2C1=O (stereo not given),-0.15,0.36
Cc1ccnn1-c1ccc(Cl)cc1,-0.7,-0.14
COc1ccc(CCNC(=O)CCn2c(=O)c3cccn3c3cccnc32)c(OC)c1,0.35,3.5
CN(CCNC(=O)c1nc(-c2cccnc2)no1)C1CCCCC1,0.45,-0.1
COc1ccc(S(=O)(=O)N2Cc3ccccc3CC2C(=O)NCc2ccc3c(c2)OCO3)cc1 (stereo not given),-0.95,nt
Cn1c(CNC(=O)c2ccccc2F)nnc1SCC(=O)Nc1nnc(C2CCCCC2)s1,0.2,nt
CCCCn1c(SCc2nc(-c3ccccc3Cl)no2)nc2ccccc2c1=O,1.5,nt
CCc1ccc2c(CN3CCc4ccccc43)cc(=O)oc2c1,-0.15,nt
NC(=O)c1cnc2n(c1=O)CCS2,-1.8,0.84
O=C(/C(=N\N=C\c1ccc(Cl)cc1)c1ccccc1)c1ccccc1,nt,0.18
COC(=O)c1cc(=O)c2c(SC)nc(-c3ccccc3)nc2[nH]1,-0.7,-0.11
N#Cc1c(-c2ccccc2)noc1/C=C/NCc1ccccc1,0.05,-0.21
COC(=O)C(CC(C)C)NC(=O)c1ccco1 (stereo not given),0.3,1
COc1cccc(Nc2nc3ccccc3s2)c1,nt,-0.31
CC1=C(C(=O)Nc2cccc(C)n2)C(c2cc([N+](=O)[O-])ccc2Cl)C2=C(CC(C)(C)CC2=O)N1 (stereo not given),nt,-0.36
CC1CCCN(C(=O)COC(=O)Cc2n[nH]c(=O)c3ccccc23)C1 (stereo not given),-0.4,nt
Nc1c(C(=O)c2ccccc2O)cnn1C(=S)NC1CCCCC1,0.25,nt
CC1CCCC(C)N1C(=O)COC(=O)/C=C/c1ccc(Br)o1 (stereo not given),0.8,nt
O=C(Nn1ncc2ccccc21)c1ccccc1,-1.1,-0.42
CCOC(=O)c1cc(-c2ccc(Cl)cc2)oc1/C=N/OC(=O)c1ccco1,0,14
N#Cc1cc2c(N)c(C(=O)Nc3ccccc3Br)sc2nc1N,nt,3.2
Cc1cc2c(cc1C)CSC1(CCCCC1C)SC2 (stereo not given),nt,-0.075
CC12CNCC(C)(CN(C(=O)CCC(=O)O)C1)C2=O,0.75,-0.08
NC(=O)CN(Cc1ccccc1F)S(=O)(=O)c1ccc(Cl)cc1,-0.5,0.05
C=CCn1c(N)c(C(=O)Nc2ccc(C)cc2)c2nc3ccccc3nc21,2.2,0.15
COc1ccc(NC(=O)C2=C(C)NC(=O)NC2c2ccccc2Cl)cc1 (stereo not given),nt,-0.54
O=C(N/N=C/c1ccco1)c1ccc(OCc2ccc(Cl)c(Cl)c2)cc1,nt,0.22
COc1ccc2oc(C(=O)OCC(=O)Nc3cccnc3Cl)c(C)c2c1,-0.85,nt
Cc1ccc(S(=O)(=O)NC(=O)n2cc(-c3ccncn3)c(-c3ccccc3Cl)n2)cc1,nt,0.48
O=C(COc1coc(CN2CCN(Cc3ccccc3)CC2)cc1=O)NCC1CCCO1 (stereo not given),1.1,nt
COc1ccc(-n2c(/C=C/c3ccccc3F)nc3cc(OC)c(OC)cc3c2=O)cc1,nt,-1.3
COc1ccc(-c2csc(N)n2)cc1OC,-1.2,nt
O=C1c2ccccc2C(=O)N1CC(O)CN1CCN(c2ccccc2Cl)CC1 (stereo not given),-0.9,0.16
O=c1cc(-c2ccccc2)c2ccc(O)c(CN3CCOCC3)c2o1,-0.7,0.52
